LASV entry inh = qHTS for Inhibitors of binding or entry into cells for Lassa Virus; Lassa virus pseudotype entry inhibition, cell reporter; control for the full effect not named in the record; 300,000 compounds, 1.2% hits; Potency, µM (titrated, usually from 37.9 µM), without a hit: at the top dose activity change, negative = inhibition, actives largely listed as inhibitors; active means well fitted inhibition curve with a large enough effect; inconclusive means small, poorly fitted or top-dose-only effect, or effect the other way; inactive means flat fitted curve, though single readings scatter; tested in HEK293 cells; note: % is set by controls: 0 for no effect and ±100 for the full control effect; nearly all actives have a fitted effect of over 50% in size; luciferase read-out
SARS PLP yeast = qHTS of Yeast-based Assay for SARS-CoV PLP. S. cerevisiae expressing SARS-CoV PLpro, growth rescue; control for the full effect not named in the record. Potency, µM (series often up to 32.9 µM), for the others: at the highest dose activity, positive = growth rescue. 330,000 compounds, 0.19% hits; note: 0% is about no effect; nearly all actives have a fitted effect of over 55% in size; growth read by luminescence after 48 h
StopGo reporter = High Throughput Screening for Foot and Mouth Disease Virus Antivirals | 410,000 compounds, 1.2% hits | Potency, µM (top dose mostly 57.9 µM), for inactives: at the top dose signal change, negative = less light | human cells with a luciferase reporter of 2A StopGo recoding; control for the full effect not named in the record; active = well fitted falling curve with a large enough effect; inconclusive = small, poorly fitted or top-dose-only effect; inactive = no such curve, though single readings can be large or run the other way; tested in HEK293T cells; note: % is set by controls: 0 for no effect and ±100 for the full control effect; nearly all actives have a fitted effect of over 45% in size; luciferase light after 4 h
RE007 growth inh = qHTS Assay for Inhibitors of the HIV-1 protein Vpr. S. pombe RE007 Vpr strain, BacTiter-Glo ATP luminescence, 24 h; control for the full effect not named in the record. Potency, µM (highest dose often 92.2 µM), without a hit: at the highest dose activity change, negative = less growth. AID 651644, 2012. 360,000 compounds, 0.21% hits; active = well fitted falling curve with a large enough effect; inconclusive = small, poorly fitted or top-dose-only effect; inactive = no such curve, though single readings can be large or run the other way;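 note: % is set by controls: 0 for no effect and ±100 for the full control effect; nearly all actives have a fitted effect of over 50% in size; the assay follows cell death caused by Vpr and the record does not say whether a fall means rescue or toxicity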
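Fission yeast strain RE007, carrying one chromosomally integrated HIV-1 vpr copy, was seeded at OD 0.01 in PMG+AL medium with 23 nL pinned compound. After 24 h at 30 °C and 99% humidity, viability was read by BacTiter-Glo luminescence.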
Cruzain noTriton = qHTS Assay for Promiscuous and Specific Inhibitors of Cruzain (without detergent); purified cruzain, Z-FR-AMC fluorescence, no detergent; Potency, µM, inactives show max response, negative = inhibition, hits mostly inhibitors; 200,000 compounds, 2.3% hits; active = well fitted curve in the direction sought with a large enough effect; inconclusive = small, poorly fitted or top-dose-only effect, or another doubt; inactive = no such curve, though single readings can be large; an effect the other way counts as inactive or inconclusive;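 note: plate controls were enzyme without inhibitor for no effect and buffer without enzyme for full effect; nearly all actives have a fitted effect of over 40% in size; top concentration of the series not given in the record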
Target sequence (P25779 123-467 limits assumed): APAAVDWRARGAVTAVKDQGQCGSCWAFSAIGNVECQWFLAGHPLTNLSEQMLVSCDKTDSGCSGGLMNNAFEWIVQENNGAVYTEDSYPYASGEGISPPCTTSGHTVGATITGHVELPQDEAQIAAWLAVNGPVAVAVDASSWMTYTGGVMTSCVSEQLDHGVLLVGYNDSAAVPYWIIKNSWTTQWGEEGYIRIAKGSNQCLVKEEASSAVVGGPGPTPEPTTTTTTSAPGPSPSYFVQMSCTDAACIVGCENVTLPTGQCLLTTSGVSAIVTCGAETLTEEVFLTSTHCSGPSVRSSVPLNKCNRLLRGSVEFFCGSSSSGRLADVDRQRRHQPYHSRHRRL
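Purified cruzain at 1.5 nM, pre-incubated 15 min with compound at room temperature in 100 mM sodium acetate pH 5.5, 5 mM DTT, 0.00005% Triton X-100. Reaction started with 2 uM Z-FR-AMC; AMC fluorescence increase over 60 s gives rate.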
Cruzain Triton = qHTS Assay for Promiscuous and Specific Inhibitors of Cruzain (with detergent); Cruzipain (Trypanosoma cruzi), P25779; purified cruzain, Z-FR-AMC fluorescence, 0.01% Triton; Potency, µM, for inactives: max response, negative = inhibition, hits mostly inhibitors; 200,000 compounds, 0.43% hits; AID 1478, 2009; active = well fitted curve in the direction sought with a large enough effect; inconclusive = small, poorly fitted or top-dose-only effect, or another doubt; inactive = no such curve, though single readings can be large; an effect the other way counts as inactive or inconclusive;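 note: plate controls were neutral wells for no effect and buffer without enzyme for full effect; nearly all actives have a fitted effect of over 40% in size; top concentration of the series not given in the record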
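Z-FR-AMC hydrolysis (2 uM substrate) by cruzain (1.5 nM) monitored kinetically at ex 360/em 450 nm after 15 min room-temperature compound exposure; 0.01% Triton X-100, pH 5.5, 5 mM DTT.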
Marburg entry inh = qHTS for inhibitors of binding or entry into cells for Marburg Virus | Marburg virus pseudotyped entry inhibition, cell reporter; control for the full effect not named in the record; about a third of the inactives were read at about 46 µM | Potency, µM (highest dose often 37.8 µM), for the others: at the top dose activity change, negative = inhibition, actives largely listed as inhibitors | 300,000 compounds, 1.8% hits | AID 540276, 2011; active = well fitted inhibition curve with a large enough effect; inconclusive = small, poorly fitted or top-dose-only effect, or effect the other way; inactive = flat fitted curve, though single readings scatter; tested in HEK293 cells; about a fifth of its hits are not listed in these tables; note: % is set by controls: 0 for no effect and ±100 for the full control effect; luciferase read-out
NS1 inh = qHTS Assay for Inhibitors of Influenza NS1 Protein Function; 270,000 compounds, 0.4% hits; S. cerevisiae slowed by influenza A NS1, growth recovery by OD600; AID 2326, 2010; Potency, µM (series often up to 46.1 µM), for inactives: at the top dose activity, positive = more growth; note: actives are rising curves; nearly all actives have a fitted effect of over 50% in size
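Read-out: OD600 growth recovery of NS1-expressing budding yeast. Cells grown overnight at 30C in -URA glucose medium, washed, resuspended and diluted 1:100 in 2% galactose assay medium, pH 6.0. Same strain lacking NS1 served as positive control.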
* hit, by the source's call; ? = inconclusive; nt = no result given; & = joins results of further samples; [ ] = another dose, or the depositor's remark. Unless noted, calls come from the whole dose curve; as a rule, active means well fitted rising curve with a large enough effect; inconclusive means small, poorly fitted or top-dose-only effect; inactive means no such curve, though single readings can be large or run the other way. Potency is the fitted concentration of half-maximal effect. Rows were taken by chance (roughly 4.7% active in at least one column).

SMILES	LASV entry inh	SARS PLP yeast	StopGo reporter	RE007 growth inh	Cruzain noTriton	Cruzain Triton	Marburg entry inh	NS1 inh
COC(c1ccccc1)c1nnc(CCC(=O)NC2CCCCC2)o1 (stereo unspecified)	18%[46.1 µM]	0%	13%	-3%	nt	nt	0%[46.1 µM]	-1%
CC1=C(C(=O)OCc2ccccc2)C(c2cccc(Cl)c2Cl)CC(=O)N1 (stereo unspecified)	8%[46.1 µM]	nt	-13%	nt	0%	-2.0%	-1%[46.1 µM]	nt
CCCCCCS(=O)Cc1ccccc1 (stereo unspecified)	16%	-13%	36%[activator]	0%	4%	4.2%	5%	5%
NCCc1c[nH]c2ccc(F)cc12	nt	-2%	nt	nt	-12%	6.7%	nt	-1%
Cc1ccnc(Cc2ccccc2)n1	?	0%	-6%	16%	nt	nt	8%[46.1 µM]	7%
NC(=O)CC(NC(=O)Cc1cccc2ccccc12)c1ccc(N2CCC(N3CCCCC3)CC2)c([N+](=O)[O-])c1 (stereo unspecified)	nt	-6%	12%	3%	nt	nt	nt	-4%
CCOC(OCC)P(=O)(c1ccccc1)c1ccccc1	6%	0%	-18%	?	13%	-2.0%	-2%	11%
O=C(c1cccs1)N1CCN(C(=O)c2ccco2)c2ccccc2C1	-13%	-1%	-29%	13%	-5%	-0.2%	-19%	-3%
O=[N+]([O-])c1ccc(N2CCCC2)cc1NCc1ccccc1	-17%	-5%	-7%	2%	-4%	-5.2%	-30%	1%
CCCC(=O)N/N=C1\CS(=O)(=O)N(C)c2ccsc21	0%[46.1 µM]	3%	0%	5%	nt	nt	-1%[46.1 µM]	nt
N#C/C(=C\c1ccc(N2CCOCC2)o1)C(=O)NCC1CCCO1 (stereo unspecified)	10%	-1%	6%	9%	nt	nt	8%	-8%
NNC(=O)c1nc(-c2ccccc2)cc(-c2ccccc2)n1	nt	0%	-4%	1%	nt	nt	nt	10%
CS(=O)(=O)N(CC(=O)NCCSCc1ccccc1Cl)c1ccccc1F	nt	7%	-10%	6%	nt	nt	nt	-15%
Clc1ccc(-c2nc3ccccn3c2CN2CCSCC2)cc1	nt	-4%	-27%	-30%	nt	nt	nt	-32%
O=C(c1ccc([N+](=O)[O-])s1)N1CCN(c2cccc(Cl)c2)CC1	?	-102%	?	-21%	-11%	-11%	?	-36%
O=C(Cc1ncc(C(F)(F)F)cc1Cl)NCc1cccnc1	nt	0%	-11%	-11%	nt	nt	nt	2%
COc1ccc(OC)c(CNC(=O)c2cc3c(-c4ccc(OC)c(OC)c4)nn(C)c3s2)c1	-15%[46.1 µM]	nt	-25%	nt	?	-19%	?	nt
CC(C)(Cc1ccc(O)cc1)NC(=O)CC(=O)N/N=C/c1ccc([N+](=O)[O-])cc1	2%[46.1 µM]	0%	-13%	4%	nt	nt	15%[46.1 µM]	0%
CCCCNS(=O)(=O)c1ccc(OC)cc1	-2%	-5%	114%[activator]	17%	12%	5.2%	9%	-11%
COC(=O)c1c(C)oc2ccc(N(C(=O)c3ccncc3)S(=O)(=O)c3ccc(Br)cc3)cc12	?	nt	-19%	nt	-7%	-6.1%	nt	nt
Cc1ccc2nc(NC(=O)COC(=O)c3ccc(Br)o3)sc2c1	?	3%	20%	-5%	-29%	-4.6%	27%	-1%
O=c1c(C/C=C/c2ccccc2)c(O)ccn1Cc1cccc(Cl)c1	nt	0%	-11%	-16%	nt	nt	nt	5%
COc1ccc(NC(=O)CN(C)CC(=O)Nc2cccc(C(C)=O)c2)cc1	nt	1%	-11%	18%	nt	nt	nt	7%
O=C(NCCc1ccc(F)cc1)C(=O)NCC(c1ccc2c(c1)OCO2)N1CCOCC1 (stereo unspecified)	19%[46.1 µM]	nt	-18%	nt	-9%	0.5%	nt	nt
O=C(COc1ccc(S(=O)(=O)NC2CCCCC2)cc1)N1CCN(c2ccc(F)cc2)CC1	nt	-6%	-29%	6%	-10%	-0.5%	-4%	-79%
COc1ccccc1N1CCN(CCN(C(=O)C2CCCCC2)c2ccccn2)CC1	nt	nt	nt	-7%&-1%[18.4 µM]	-2%	3.1%	nt	-8%
C=CCOc1ccccc1/C=C/C(=O)O	5%	18%	-24%	16%	-5%	9.2%	4%	-1%
COc1ccc(C)cc1CN1C(=O)c2ccccc2C1=O	0%[46.1 µM]	-1%	36%[activator]	-23%	nt	nt	9%[46.1 µM]	-5%
CCOC(=O)Cn1nnc(-c2cccc(OC)c2)n1	6%	4%	nt	9%	-2%	-0.3%	9%	-14%
Cc1ccc(C)c(N2CCN(C(=O)c3cccc(-n4c(C)nc5cccnc54)c3)CC2)c1	?	nt	25µM*	nt	?	-6.3%	nt	nt
O=C(Nc1ccccc1)N(Cc1cccs1)c1ccc(F)cc1	-10%[46.1 µM]	nt	-14%	nt	0%	-3.5%	?	nt
CNC(=O)c1cc(S(=O)(=O)NC2CCCCCC2)ccc1C	3%[46.1 µM]	-10%	59%[activator]	4%	nt	nt	-21%[46.1 µM]	-8%
CC(C)N(Cc1nc(-c2ccccc2)no1)C(=O)CN1C(=O)c2ccccc2C1=O	14%[14.3 µM]	-5%	3%	-1%	?	-0.3%	8%	-10%
CCN(CC)c1ccc(NC(=O)c2sc3nc4c(cc3c2N)CN(C)CC4)cc1	9%[46.1 µM]	nt	?	nt	-8%	0.4%	3%[46.1 µM]	nt
Cc1ccc(-c2ccc(OC(=O)c3ccc(=O)[nH]c3)c(C)c2)cc1	nt	-4%	2%	12%	nt	nt	nt	1%
COc1cc(NS(=O)(=O)c2ccc(F)cc2)c(OC)cc1NC(C)=O	1%	1%	17%	33%	1%	-7.6%	3%	-1%
Cc1cc(=O)n(Cc2cccc(Cl)c2)c2c1c(C)nn2C	1%[46.1 µM]	nt	-23%	nt	?	-6.0%	nt	nt
CN(C)C(=O)Oc1ccc2ccccc2c1Cl	?	13%	38%[activator]	-23%	-3%	-1.3%	?	-86%
COc1ccc(/C=N/NC(=O)c2ccn[nH]2)cc1CN1CCOCC1	10%[46.1 µM]	0%	1%	7%	nt	nt	-1%[46.1 µM]	-2%
CCC(C)[C@H](NC(=O)Nc1cccc(Br)c1)C(=O)OC (stereo partly specified)	17%	-17%	-24%	-6%	-10%	-4.7%	17%	2%
COCc1cc(=O)[nH]c(/N=C(\N)Nc2ccccc2C)n1	9%	2%	-3%	3%	-8%	0.7%	18%	0%
N#CC1=C(N)Oc2c(ccc3cccnc23)C1c1cccnc1 (stereo unspecified)	?	?	-21%	-9%	1%	-8.2%	?	-5%
O=C(C1=NN(c2ccccc2)C2C(=O)N(c3ccccc3Cl)C(=O)C12)c1ccccc1 (stereo unspecified)	0%	-9%	9%	-13%	?	-7.8%	11%	5.6µM*
CCN(Cc1ccc(OC)cc1)c1ccc(-c2nc(-c3ccncc3)no2)cc1[N+](=O)[O-]	2%[46.1 µM]	nt	-17%	nt	-3%	-13%	2%[46.1 µM]	nt
CC(C)NC(=O)CN1C(=O)C(=O)c2ccccc21	-15%	22%	-13%	-5%	2%	1.4%	?	17%
CCc1cccc(CC)c1-n1c(SCC(=O)N2CCc3ccccc3C2)nnc1-c1cccnc1	?	-4%	-21%	68%	3%	-1.5%	?	-4%
COc1ccc(C(=O)NCc2ccc3c(c2)CCN3C(=O)c2ccc(Cl)cc2)c(OC)c1	9%[46.1 µM]	nt	0%	nt	2%	0.5%	nt	nt
Cc1ccc(Cn2nnc3c(=O)n(CC(=O)OCc4ccccc4)cnc32)cc1	-1%	9%	-15%	10%	22%	-4.8%	2%	-3%
COc1ccc(C(=O)/C=C/c2ccccc2)c(OC)c1	nt	-5%	-17%	-14%	nt	nt	nt	-8%
CCCCN=Cc1c(O)n(-c2c(C)cc(C)cc2C)c(=O)[nH]c1=O	-6%	-1%	3%	0%	0%	-1.1%	8%	-1%
Cc1cccc(C)c1NC(=O)C(c1ccccc1)N1CCN(C(=O)c2ccco2)CC1 (stereo unspecified)	-8%	-16%	-16%	-16%	7%	-2.4%	-25%	-17%
CN1CCN(c2nc(Nc3ccccc3)nc(N)c2[N+](=O)[O-])CC1	22%	-1%	-12%	-15%	nt	nt	?	7%
Nc1ccccc1C(=O)Nc1cccc2ccccc12	nt	-2%	67%[activator]	-20%	nt	nt	nt	16%
CCN(CC)CCCNC(=S)N1CCN(c2nc(-c3ccc(F)cc3)cs2)CC1	?	-1%	?	-1%	nt	nt	10µM*	17%
COc1ccc(-c2n[nH]c(C)c2-c2ccc(OC)c(OC)c2)c(O)c1	?	9%	?	2%	6%	-7.5%	?	2%
CN(CCC#N)C(=O)CSc1nc2scc(-c3ccccc3)c2c(=O)[nH]1	0%	23%	-22%	3%	14%	-8.2%	?	1%
Cc1oc2ncnc(N3CCCCC3)c2c1C(=O)Nc1cccc(F)c1	16%[46.1 µM]	nt	-13%	nt	-5%	-4.8%	nt	nt
COc1ccc(S(=O)(=O)Nc2ccc3c(c2)OCO3)cc1C	-3%	1%	nt	-13%	-14%	-3.4%	-9%	-8%
O=C(CNC(=O)c1ccco1)Nc1ccc2c(c1)OCCO2	?	7%	?	0%	nt	nt	?	nt
Cc1cc(Nc2ccccc2)nc2cc(O)ccc12	5%	10%	37%[activator]	10%	-14%	-17%	-25%	-13%

(list continues)
SMILES	LASV entry inh	SARS PLP yeast	StopGo reporter	RE007 growth inh	Cruzain noTriton	Cruzain Triton	Marburg entry inh	NS1 inh
Nc1c(S(=O)(=O)c2cccc(Cl)c2)c2nc3ccccc3nc2n1/N=C/c1ccc(O)c(O)c1	nt	-2%	nt	nt	?	-8.7%	nt	-38%
Cc1ccccc1-n1c(O)c(/C=N/NC(=O)c2ccccc2O)c(=O)[nH]c1=S	nt	11%	0%	2%	nt	nt	nt	3%
Cc1ccc2c(CC(=O)Nc3c(C(=O)c4ccc(F)cc4)oc4ccccc34)coc2c1C	14%[46.1 µM]	nt	-6%	nt	-24%	4.5%	21%[46.1 µM]	nt
Cc1ccc(C)c(CSc2c(C(C)C)cnc3c2c(=O)n(C)c(=O)n3C)c1	-11%[46.1 µM]	nt	-23%	nt	-11%	4.1%	nt	nt
COc1cc(C(=O)Oc2cccc(C)c2)cc(OC)c1OC	-21%	9%	-10%	-9%	2%	-1.2%	13%	-17%
